ClpP mod – qHTS Assay for Activators of ClpP; ATP-dependent Clp protease proteolytic subunit (Bacillus subtilis (strain 168)), P80244; purified B. subtilis ClpP, FRET peptide cleavage, 20 min; Potency, µM (series often up to 57.5 µM), for inactives: top-dose activity change, negative = active; 340,000 compounds, 1.9% hits; active = well fitted falling curve with a large enough effect; inconclusive = small, poorly fitted or top-dose-only effect; inactive = no such curve, though single readings can be large or run the other way; note: potency is the fitted concentration of half-maximal effect; the source files actives as falling curves though it sought activators and does not explain the sign; nearly all actives have a fitted effect of over 65% in size; many hits overshoot -100%
Target sequence (P80244 whole entry, looked up): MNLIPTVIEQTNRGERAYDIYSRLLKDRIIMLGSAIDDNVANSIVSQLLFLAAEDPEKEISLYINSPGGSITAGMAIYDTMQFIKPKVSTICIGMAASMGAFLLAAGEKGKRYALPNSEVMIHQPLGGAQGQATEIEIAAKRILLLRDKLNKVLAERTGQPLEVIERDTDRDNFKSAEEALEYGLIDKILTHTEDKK
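FRET quenching reversal measured ClpP activation: 10 microg/mL B. subtilis ClpP at pH 8 with the FRET-FV decapeptide, read at 430 nm after 320 nm excitation. The 20-min minus 0-min signal was scaled between DMSO/no-enzyme wells and ADEP (5.8 microM final).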
gsp agonist – activates gsp, the McCune-Albright syndrome mutation; gsp mutant cells, cAMP HTRF, 30 min; control for the full effect not named in the record; Potency, µM (doses to about 76.9 µM), for inactives: at the highest dose activation (cAMP increase), usual class: activators; 340,000 compounds, 0.13% hits; AID 624287; active = well fitted activation curve with a large enough effect; inconclusive = small, poorly fitted or top-dose-only effect, or another doubt; inactive = no such curve, though single readings can be large or run the other way; cell line not stated here;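 note: phosphodiesterase inhibitor Ro 20-1724 added with compounds to block cAMP breakdown; potency is the fitted concentration of half-maximal effect; nearly all actives have a fitted effect of over 60% in size; about a fifth of the inactives were tested at one dose only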
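Cells in DMEM/10% FBS with G418 were pretreated with compounds in DMSO plus […] (300 uM stock) for 30 min at 37C. cAMP was measured by HTRF (cAMP-d2 plus anti-cAMP antibody-K) after 30 min at room temperature.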
TRPV1 PAM – potentiators of human vanilloid receptor 1 (TRPV1). TRPV1-expressing cells, Fluo-8 calcium influx, capsaicin EC20 potentiation; host cell line not named in the record; control for the full effect not named in the record. AID 540277. potentiation, % at 8.33 µM. 320,000 compounds, 0.02% hits; active means potentiation above 80%; inconclusive means 30% to 80%; inactive means below 30%; note: 0% is about no effect
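Cells expressing TRPV1 were dye-loaded with Fluo-8 and read kinetically: 10 s baseline, 3 min after compound (agonist portion), then 2 min after EC20 capsaicin (allosteric enhancer portion). Calcium-bound dye fluorescence at 480/520 nm.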
D2 PAM – potentiates the human D2 dopamine receptor allosterically; P14416; DiscoveRx D2 beta-arrestin cells, luminescence, 90 min; 100% = 57 uM dopamine signal; potentiation, % (no concentration beside the values); 360,000 compounds, 0.23% hits; AID 624464; active = potentiation of 50% or more; inconclusive = 30% to 50%; inactive = 30% or less;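 note: compound concentration not given in the record; tested on top of an EC20 dose of dopamine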
Target sequence (P14416 whole entry, looked up): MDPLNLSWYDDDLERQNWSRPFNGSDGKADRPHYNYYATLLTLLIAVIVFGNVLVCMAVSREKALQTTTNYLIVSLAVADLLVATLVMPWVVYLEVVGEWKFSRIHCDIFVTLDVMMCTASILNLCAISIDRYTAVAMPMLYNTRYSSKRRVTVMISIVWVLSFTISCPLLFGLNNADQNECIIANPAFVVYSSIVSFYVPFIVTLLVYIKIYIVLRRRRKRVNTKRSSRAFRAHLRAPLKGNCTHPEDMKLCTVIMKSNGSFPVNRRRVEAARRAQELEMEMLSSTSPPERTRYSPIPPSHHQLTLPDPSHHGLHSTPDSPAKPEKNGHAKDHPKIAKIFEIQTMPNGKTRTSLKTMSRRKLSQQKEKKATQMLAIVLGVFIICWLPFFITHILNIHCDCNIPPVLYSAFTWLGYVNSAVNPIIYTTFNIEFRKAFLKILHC
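D2 cells co-treated with compound plus 50 nM dopamine (EC20) for 90 min at 37 deg C to detect potentiation. Beta-arrestin recruitment was read as enzyme-fragment luminescence after 1 h at ambient temperature. Full response was set by 57 uM dopamine.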
Sfp PPTase inh – inhibitors of Bacillus subtilis Sfp phosphopantetheinyl transferase; Q9F4F7; Biochemical Sfp PPTase activity, qHTS; Potency, µM, inactives show max response, negative = inhibition, most hits filed as inhibitors; 310,000 compounds, 3.5% hits; AID 1490; active = well fitted inhibition curve with a large enough effect; inconclusive = small, poorly fitted or top-dose-only effect, or another doubt; inactive = no such curve, though single readings can be large or run the other way;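 note: the enzyme is Sfp with the accession as filed and its product quenches rhodamine fluorescence; potency is the fitted concentration of half-maximal effect; 0% = enzyme reaction without inhibitor and -100% = no enzyme wells; top concentration of the series not given in the record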
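Reaction rates are the 30-min fluorescence difference (ex 525, em 598 nm) in wells containing 15 nM Sfp, 5 uM rhodamine-CoA and 12.5 uM BHQ-2-YbbR at pH 7.6 with 10 mM MgCl2.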
gsp antagonist – antagonizes gsp, the McCune-Albright syndrome mutation; gsp-mutant cells, cAMP HTRF, 30 min; control for the full effect not named in the record; Potency, µM (top dose mostly 76.9 µM), inactives show at the highest dose activity change, negative = inhibition, most hits filed as inhibitors; 340,000 compounds, 0.4% hits; AID 624288; active = falling curve of any shape with a large fitted effect; inconclusive = falling curve, mostly with a smaller effect; inactive = flat or rising curve; cell line not stated here;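 note: intracellular cAMP measured with PDE inhibitor Ro 20-1724 present during compound exposure; potency is the fitted concentration of half-maximal effect; % is set by controls: 0 for no effect and ±100 for the full control effect; nearly all actives have a fitted effect of over 65% in size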
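Cells, 2000/well, grown 16–24 h in DMEM 10% FBS with 0.5 mg/ml G418, then compounds plus […] (300 uM addition stock), 30 min at 37C. cAMP read by HTRF (cAMP-d2 and anti-cAMP antibody-K in lysis buffer) after 30 min RT.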
Menin-MLL FL inh – displaces fluorescein MLL peptide from human menin; Fluorescence polarization, fluorescein-MLL peptide displacement from menin; FP activity change, % at 61.4 µM; 290,000 tested, under 10 active; inconclusive = falling polarisation curve, or a change in total fluorescence; inactive = total fluorescence flat and polarisation flat or rising; no compound was filed as active; the % refers to the polarisation; negative = inhibition;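 note: % of control where 0% means no effect; inhibitors lower the polarisation; unlabelled MLL peptide was the positive control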
* hit, by the source's call; ? = inconclusive; / = no result given; [ ] = dose if it differs, or a comment.

SMILES | ClpP mod | gsp agonist | TRPV1 PAM | D2 PAM | Sfp PPTase inh | gsp antagonist | Menin-MLL FL inh
O=C(N/N=C/c1ccc(Cl)c([N+](=O)[O-])c1)c1ccc2c(c1)OCCO2 | -1.7% | 28.5% | / | -12.4 | / | -12.0% | /
CC(C)(C)C1CCC(OC(=O)C[N+]2(C)CCCCC2)CC1 (stereo not given) | / | 14.0% | -4.7 | -1.2 | -12.9% | 10.5% | 4.0
O=C(c1ccc2c(c1)OCO2)N1CCN(S(=O)(=O)N2CCCCC2)CC1 | / | -29.8% | 2.2 | -3.4 | 17.0% | 6.1% | -1.7
Cc1cccc(NS(=O)(=O)c2cc(C(=O)OCC(=O)Nc3cc(C)on3)ccc2C)c1 | 1.1% | -11.7% | 16.7 | 2.2 | 4.1% | ? | -1.3
CC(=O)Nc1ccc2nc(CN3CCN(CC(C)C)C(CCO)C3)ccc2c1 (stereo not given) | / | -17.6%[15.4 µM] | -1.1 | -1.0 | 8.2% | 5.2% | 0.0
NC(=O)C(CCC(=O)c1ccc(Br)cc1)S(=O)(=O)c1ccccc1 (stereo not given) | -0.3% | 5.7%[15.4 µM] | -7.7 | -0.5 | 1.5% | -2.0% | 1.4
CCC(NS(=O)(=O)c1ccc(OC)cc1)C(=O)NCCc1ccccc1 (stereo not given) | / | -2.5% | -14.9 | 2.1 | 15.1% | 2.8% | 3.1
C=CCn1c(SCc2cc([N+](=O)[O-])cc3c2OCOC3)nc2cc(C(=O)O)ccc2c1=O | -2.7% | -4.2% | 6.4 | 0.3 | -5.3% | ? | 0.9
Cc1ccc(C2NC(=S)NC3=C2C(=O)CC(C)(C)C3)cc1 (stereo not given) | -0.5% | -0.7% | -5.7 | -18.5 | 16.8% | 9.6% | 1.2
O=C(CCn1c(=O)oc2ccccc21)N1CCc2ccccc21 | 1.7% | 22.5% | ? | -9.1 | -13.7% | -5.9% | -0.3
Cc1ccc(CC(=O)Nc2ccncc2)cc1 | -0.5% | -2.6% | -17.2 | -7.8 | 4.8% | 64.4%[activator] | -0.9
COc1ccc(C(=O)O)cc1S(=O)(=O)Nc1ccc(Oc2ccccc2)cc1 | 0.1% | -3.4% | 2.6 | 0.2 | / | 12.7% | /
COc1ccc(C)cc1N(CC(=O)Nc1cccnc1)S(=O)(=O)c1ccc(C)cc1 | / | -49.8%[inhibitor] | -8.3 | -1.6 | 5.5% | -12.0% | 0.1
CCc1nc(Nc2ccccc2OC)c2oc3ccccc3c2n1 | 3.7% | ? | 1.4 | -2.0 | -21.4% | -12.4% | 4.5
Nc1c2c(nc3sc4c(c13)CCCC4)CCCCCC2 | 1.4% | -15.1% | -9.9 | -4.9 | 15.1% | -2.5% | 4.5
Cc1nn(-c2cccc(C(F)(F)F)c2)c(=O)c2ccccc12 | 1.2% | -5.0%[15.4 µM] | 8.6 | -0.6 | -8.6% | -14.2% | -7.3
O=S(=O)(Nc1cccc2ccccc12)c1cccs1 | -7.4% | -61.0%[inhibitor] | 9.2 | 0.8 | 6.3% | 8.9% | /
CN(C(=S)Nc1cccnc1)c1ccc(O)cc1 | -4.2% | 16.6% | 11.1 | 63.6* | ? | -2.2% | 3.1
N#C/C(=C\c1ccc(-c2ccccc2C(=O)O)o1)c1nc2ccccc2[nH]1 | -18.2% | -6.6% | -10.8 | 2.5 | 0.2% | -17.3% | ?
Cn1ccsc1=NC(=O)c1cccc(C#N)c1 | / | 11.2% | -4.4 | -0.9 | -14.5% | -6.2% | -0.5
CC(=O)C1=C(C)OC(N)=C(C#N)C1c1ccncc1 (stereo not given) | 0.9% | 21.7% | ? | 6.4 | ? | -9.1%[15.4 µM] | ?
N#CC1=C(N)N(c2ccccc2)C2=C(C(=O)CCC2)C1c1ccsc1 (stereo not given) | -18.7% | 18.3% | 5.5 | 14.3 | ? | -2.6% | -0.4
COC(=O)c1nonc1NCn1nnc2ccccc21 | -1.2% | ? | -11.6 | -3.9 | 9.7% | -0.9% | 1.3
Cc1c(C(=O)OCC(=O)N2CC(C)OC(C)C2)oc2ccc(Br)cc12 (stereo not given) | -1.0% | ? | 12.9 | -13.0 | 1.4% | -6.5% | -1.4
O=C(CSc1nc2c(cnn2-c2ccccc2)c(=O)[nH]1)NC1CCS(=O)(=O)C1 (stereo not given) | -0.9% | -14.7% | -18.3 | 1.9 | -10.0% | -15.2% | -0.5
(further entries)
SMILES | ClpP mod | gsp agonist | TRPV1 PAM | D2 PAM | Sfp PPTase inh | gsp antagonist | Menin-MLL FL inh
COC(=O)c1cc(C(=O)OCC(=O)NC2CCS(=O)(=O)C2)cc([N+](=O)[O-])c1 (stereo not given) | / | -1.4%[15.4 µM] | 8.6 | 4.3 | 12.8% | 12.6% | -5.5
O=C(O)c1ccc(Nc2nc(-c3cccnc3)cs2)cc1O | -7.3% | 17.0% | 5.2 | -28.8 | ? | -5.9% | 8.1
Cc1cc(C)cc(N2C(=O)CC(n3ccnc3)C2=O)c1 (stereo not given) | -0.6% | 11.1% | -13.6 | 0.3 | -5.6% | 7.5% | 0.7
CN(C)CCOC(=O)CC12CC3CC(C1)CC(CC(=O)OCCN(C)C)(C3)C2 | -1.0% | 3.5% | 2.4 | -19.2 | 4.5% | 10.6% | 5.3
CCCCCC1CC(CC(=O)O)C(=O)O1 (stereo not given) | -3.1% | 17.1% | -2.5 | -5.5 | 11.0% | 2.0% | 0.4
Cc1nc(-c2ccc(O)c(O)c2)cs1 | 1.2% | -0.8% | 4.6 | ? | 56.2µM* | 5.5% | -1.6
O=C(O)CC1SC(=Nc2cccc(C(F)(F)F)c2)NC1=O (stereo not given) | 0.4% | 10.6% | 6.9 | 12.3 | -3.3% | -2.9% | 0.4
O=c1c([N+](=O)[O-])c(N2CCOCC2)c2ccccc2n1Cc1ccccc1 | -0.6% | 26.1%[15.4 µM] | -13.7 | -2.1 | -1.6% | -17.8% | -0.7
O=C(N/N=C/c1cccc2ccccc12)c1cc(C2CC2)[nH]n1 | 1.9% | 0.8% | -7.2 | 0.0 | 9.8% | 0.1% | -2.8
CCCOc1ccc(-c2c(C(=O)N/N=C/c3ccccc3OCC)nnn2-c2nonc2N)cc1 | / | ? | 16.4 | -0.5 | 3.9% | 2.2% | /
CC(=O)NC(CC(=O)NC12CC3CC(CC(C3)C1)C2)c1ccccc1 (stereo not given) | 1.0% | 14.2% | 7.6 | -2.4 | 10.0% | -15.3% | -2.5
CCCCCCC(=O)c1c(C)[nH]c(C(=O)OCC)c1C | 0.8% | -6.8% | -8.8 | 3.6 | 22.1% | -13.9% | 0.7
O=[N+]([O-])c1nn(-c2ccc3c(c2)OCCO3)n(O)c1=NCc1ccc(F)cc1Cl | / | -0.7%[15.4 µM] | -24.4 | 6.7 | 10.7% | 6.5% | ?
CC1CCCC(NC(=O)CCC(=O)c2ccc(F)cc2)C1C (stereo not given) | -1.2% | -3.4% | -7.5 | -6.0 | 4.8% | -6.3% | ?
O=c1ccn([C@@H]2O[C@H](CNCc3ccc(-n4cccn4)cc3)[C@@H](O)[C@H]2O)c(=O)[nH]1 | 0.9% | / | / | 15.2 | / | 9.8% | /
NC(=O)c1oc2ccccc2c1NC(=O)C1COc2ccccc2O1 (stereo not given) | -1.7% | -2.5%[15.4 µM] | 26.4 | -1.5 | 13.5% | -13.4% | 9.0
O=S(=O)(CCc1nc2ccccc2[nH]1)c1ccc(Cl)cc1 | / | 9.2%[15.4 µM] | -15.7 | -5.4 | -16.7% | 9.9% | 7.7
O=C(Cc1ccc(Cl)cc1)Nc1ccc(Br)cc1 | / | -3.7%[15.4 µM] | -7.2 | -26.0 | 11.4% | / | -0.4
CN(C)C(=O)c1ccc(-c2nnc(OCc3nc4ccccc4n3C)c3ccccc23)cc1 | 0.3% | 15.2% | / | 1.1 | / | 11.1% | /
O=C(CCSc1ccc(Cl)cc1)c1cccs1 | 0.4% | -21.5% | -7.6 | -26.2 | 1.4% | -4.7% | 0.4
Cc1cccc2c1c1ccc3c(c1n2C)C(=O)C=CC3=O | -4.1% | 11.5% | -0.1 | -46.9 | 3.55µM* | -3.9% | 2.1
CCOc1ccc(C2C(C(=O)c3ccco3)=C(O)C(=O)N2Cc2cccnc2)cc1 (stereo not given) | -0.7% | 30.9% | 12.2 | -16.8 | 13.7% | 25.7% | 1.6
CN(C)c1ccc(C(=O)OCC(=O)Nc2cccc(S(=O)(=O)N3CCCC3)c2)cc1 | ? | 11.6% | / | -9.0 | / | -28.2% | /
CN(C)/C=N/c1sc2c(c1C#N)CCCC2 | / | -27.9% | -14.9 | 1.1 | 44.7µM* | -5.7% | 1.0
CCOC(=O)CSc1nnc(CNc2nc(-c3ccccc3)cs2)n1C | -23.7% | -0.8% | 15.3 | -5.6 | ? | -0.7% | 0.5
New compounds follow:
SMILES | ClpP mod | gsp agonist | TRPV1 PAM | D2 PAM | Sfp PPTase inh | gsp antagonist | Menin-MLL FL inh
COc1ccc(CCNC(=O)C2CC(c3ccc([N+](=O)[O-])cc3)=NO2)cc1 (stereo not given) | -1.6% | 17.2% | 1.7 | -6.0 | 7.0% | -8.1% | 0.2
CCOC(=O)c1c(C)[nH]c(C(=O)OCC(=O)Nc2ccccc2)c1C | -0.6% | 4.9% | 15.8 | -6.6 | / | 2.9% | /
CCCCC(CC(C)O)c1n[nH]c(=S)n1-c1ccccc1 (stereo not given) | 2.8% | -16.1% | 0.0 | -15.9 | 6.6% | 4.0% | -0.9
CCOC(=O)N1CCN(C(=O)C2CCN(S(=O)(=O)N3CCC4(CC3)OCCO4)CC2)CC1 | -0.2% | -2.2% | 9.6 | -6.6 | 2.5% | 8.6% | /
O=C1CC(=C2c3ccccc3-c3ccccc32)C(=O)N1CCN1CCN(c2ccccc2)CC1 | 0.7% | 11.0% | / | -21.2 | / | -7.3% | /
CCNC(=O)/C(=C/c1cccc([N+](=O)[O-])c1)NC(=O)c1ccc(C)cc1 | -0.2% | -42.6%[inhibitor] | 9.9 | -7.1 | 16.0% | -5.9% | -6.6
COc1cccc(C(=O)Nc2cc(NC(=O)c3ccco3)ccc2OC)c1 | -0.8% | -6.9% | / | -11.1 | 9.1% | 9.7% | 4.4

Bioassay records from PubChem.

Rows were taken by chance; about 5.1% have a hit in one of these screens.
